HNF4A DNA FP: change in binding of human HNF4A to DNA, primary screen, biochemical, fluorescence polarization, FITC-DNA. 1 h. Hepatocyte nuclear factor 4-alpha (Homo sapiens), P41235. 360,000 tested, 0.3% active. AID 1224865, 2016. activity change, % at 10 µM; in the data active means activity change above about 30%, passing the limit was not always enough;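 further: controls were the assay level and a saturating level of protein; the project sought stronger binding though the title names inhibitors; some compounds called inactive have numbers as strong as hits; positive values seem to mean higher polarization but the record does not say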
ALR H2O2 inh: inhibitors of human ALR sulfhydryl oxidase, primary screen, biochemical, H2O2 detection, HRP-luminol luminescence, single point; purified ALR, DTT oxidation; inhibition, % (concentration not given with the values); 290,000 tested, 3.8% active; AID 485317, 2010;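 active means mean and each replicate at 75% or more; inconclusive means only one of the two met; inactive means neither met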;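 further: stock transfer was 7.5 nL into about 7.5 µL; 0% = neutral wells and 100% = wells with inactivated enzyme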
Vif A3G: inhibitors of Vif binding to APOBEC3G peptide, primary screen, biochemical, TR-FRET, GST-Vif 1-94, biotin-A3G peptide, dose response retest (AID 1117319); Virion infectivity factor (Human immunodeficiency virus type 1 group M subtype B (isolate …; TR-FRET GST-Vif / biotin-A3G peptide binding; higher % means a stronger effect; test concentration not given here; strong numbers were not always called active; one-dose inhibition, %; IC50 in µM for titrated hits; 260,000 tested, 0.57% active;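 active means above the screen mean plus three standard deviations and confirmed in dose response; inconclusive means results disagree or hit not tested in dose response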;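 further: Vif residues 1-94 fused to GST binding biotinylated APOBEC3G peptide 110-148; 0% = full assay without inhibitor and 100% = GST in place of GST-Vif; retest series ran down from 100 µM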
Beta2AR agonist: beta2AR agonists driving receptor internalization, primary screen, cell-based, FAP fluorogen, flow cytometry; response, % (test concentration not listed); AID 504454, 2011; Beta-2 adrenergic receptor (Homo sapiens), P07550; 340,000 tested, 0.43% active; Am2.2-beta2AR cells; reference of the scale not given here;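 active means response above a set limit, near 3 SD of response in nonfluorescent compounds, cut at about 42% in these data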;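 further: stock transfer was 100 nL into about 11 µL; a reference agonist was the positive control; negative values mostly stem from fluorescent compounds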
RanGTP-Imp inh: inhibitors of RanGTP-importin-beta interaction, primary screen, biochemical, FRET, CFP-Ran, YFP-importin-beta, homogeneous | Ran GTPase (GTP-bound) - importin-beta complex | cell-free CFP-Ran/YFP-importin-beta FRET ratio | inhibition, % (test concentration not listed) | 300,000 tested, 1.1% active;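 active means most replicates above 15%; inconclusive means exactly half above 15%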;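 further: 0% = DMSO wells and 100% = Ran loaded with GDP instead of GTP; wells of about 40 µL received 100 nL stock; the first replicate is given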
Calb FLC: C. albicans growth inhibition with fluconazole, primary screen, CaCi-2 strain, Alamar Blue fluorescence; C. albicans CaCi-2 (fluconazole-resistant clinical isolate) + fluconazole, 48 h; growth inhibition, % (test concentration not listed); 300,000 tested, 0.57% active; AID 1979, 2009;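 active means most replicates above 75%; inconclusive means exactly half above 75%; inactive means most below 75%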;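 further: all wells also contain fluconazole at 8 µg/ml as a sub-toxic cotreatment; 0% = median of DMSO wells and 100% = median of geldanamycin control wells; wells of about 8 µL received 7.5 nL stock; the first replicate is given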
LANA-H2B inh: blockers of LANA interaction with H2A/H2B – biochemical, FP readout, HTS, primary screen; Protein LANA1 (Human herpesvirus 8 type P (isolate GK18)), Q9QR71; cell-free LANA-H2A/H2B peptide, fluorescence polarization; inhibition, % (concentration not given with the values); 320,000 tested, 0.6% active; AID 2629, 2010; in the data active means inhibition mostly above about 10%, no sharp cut-off; inactive means mostly below about 6.7%;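 further: stock transfer was 7.5 nL into about 10 µL; 0% = median of vehicle wells and 100% = median of positive control wells; one replicate is shown; the record names a cut of 25% in any replicate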
Target sequence (Q9QR71 whole entry, looked up): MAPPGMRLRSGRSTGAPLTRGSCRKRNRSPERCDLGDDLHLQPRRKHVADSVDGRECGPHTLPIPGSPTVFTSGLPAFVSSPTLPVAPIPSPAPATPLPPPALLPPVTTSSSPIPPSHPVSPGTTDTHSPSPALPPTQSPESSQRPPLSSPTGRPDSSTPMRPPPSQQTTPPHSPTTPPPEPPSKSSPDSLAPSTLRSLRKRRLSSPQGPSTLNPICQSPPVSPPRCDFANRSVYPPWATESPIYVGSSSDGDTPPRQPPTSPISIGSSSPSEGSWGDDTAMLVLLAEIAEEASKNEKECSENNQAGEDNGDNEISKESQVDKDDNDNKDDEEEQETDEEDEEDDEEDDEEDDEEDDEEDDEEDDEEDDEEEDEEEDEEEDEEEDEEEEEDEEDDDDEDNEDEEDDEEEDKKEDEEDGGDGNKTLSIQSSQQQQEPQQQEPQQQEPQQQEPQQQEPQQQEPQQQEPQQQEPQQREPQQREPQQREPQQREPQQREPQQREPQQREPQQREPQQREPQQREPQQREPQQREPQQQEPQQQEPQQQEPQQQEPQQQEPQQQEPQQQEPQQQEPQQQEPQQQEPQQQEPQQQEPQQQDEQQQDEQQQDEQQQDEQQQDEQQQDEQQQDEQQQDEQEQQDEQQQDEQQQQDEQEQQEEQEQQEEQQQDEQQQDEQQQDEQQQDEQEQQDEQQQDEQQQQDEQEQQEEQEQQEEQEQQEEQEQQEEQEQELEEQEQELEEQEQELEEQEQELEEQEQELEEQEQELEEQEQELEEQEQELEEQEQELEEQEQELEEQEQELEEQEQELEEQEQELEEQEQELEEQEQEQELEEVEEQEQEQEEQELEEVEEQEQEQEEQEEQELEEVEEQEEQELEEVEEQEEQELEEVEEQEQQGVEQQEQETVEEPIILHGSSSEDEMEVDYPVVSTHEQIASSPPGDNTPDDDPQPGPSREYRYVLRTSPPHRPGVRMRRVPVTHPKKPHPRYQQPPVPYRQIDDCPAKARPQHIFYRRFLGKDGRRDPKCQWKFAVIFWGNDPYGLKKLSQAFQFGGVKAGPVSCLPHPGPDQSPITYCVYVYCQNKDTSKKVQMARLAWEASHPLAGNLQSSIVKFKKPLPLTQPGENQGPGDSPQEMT
The depositor's hits bear a star; i = inactive; ? = inconclusive; nt = not tested or not shown; & = joins results of further samples.

SMILES	HNF4A DNA FP	ALR H2O2 inh	Vif A3G	Beta2AR agonist	RanGTP-Imp inh	Calb FLC	LANA-H2B inh
CCN(CC(=O)Nc1cc(Cl)ccc1C)C(=O)CCS(=O)(=O)c1ccc(Cl)cc1	2.5	-6	-3%	-5	-2.0	-2	-0.4
O=C(NCCc1ccccc1)c1ccc(Cl)c(S(=O)(=O)N2CCOCC2)c1	6.2	nt	nt	7	2.4	-2	nt
CCN(CC)C(=O)COc1cc(C)c(Cl)c(C)c1	1.7	2	1%	0	0.1	-5	-1.7
COC(=O)C1(Cc2ccc(O)cc2)OC(=O)C(O)=C1c1ccc(O)cc1 (centres undefined)	-9.3	99*	nt	-3	2.6	-1	3.7
COc1cccc(CN(C(=O)c2cc3ccccc3oc2=O)C2CC2)c1	-1.9	-4	?	5	3.1	90*	-2.1
CCOC(=O)N1CCN(S(=O)(=O)c2cc([N+](=O)[O-])ccc2C)CC1	-2.8	-8	2%	-3	1.6	-2	3.4
C=CCN1C(=O)C2C(C(=O)NC3CCCC3)C3C=CC2(O3)C1C(=O)NC1CCCC1 (centres undefined)	-3.9	4	nt	3	-3.7	-7	3.7
O=C(COC(=O)c1cc(Cl)ccc1[N+](=O)[O-])Nc1cccc2ccccc12	3.5	nt	-5%	-5	2.2	0	-0.3
CN(C)CC(C)(C)CNS(=O)(=O)c1cccc2nsnc12	2.3	nt	16%	-4	2.1	9	0.3
O=C1c2ccccc2[C@@H]2C[C@@H](O)[C@H](Nc3ccccc3-c3ccccc3)CCN12	5.9	nt	1%	4	nt	nt	nt
CCn1c(-c2ccc[nH]c2=O)nc2ccccc21	-3.3	-8	-14%	2	2.9	-3	-0.1
CCC(C)NC(=O)CS(=O)Cc1nc(-c2ccccc2C)oc1C (centres undefined)	-0.1	98*	3%	-4	-2.0	-7	1.1

Record cards, as listed above.
CCN(CC(=O)Nc1cc(Cl)ccc1C)C(=O)CCS(=O)(=O)c1ccc(Cl)cc1 is listed with HNF4A DNA FP = 2.5; ALR H2O2 inh = -6; Vif A3G = -3%; Beta2AR agonist = -5; RanGTP-Imp inh = -2.0; Calb FLC = -2; LANA-H2B inh = -0.4
C=CCN1C(=O)C2C(C(=O)NC3CCCC3)C3C=CC2(O3)C1C(=O)NC1CCCC1 (centres undefined) is listed with HNF4A DNA FP = -3.9; ALR H2O2 inh = 4; Vif A3G = nt; Beta2AR agonist = 3; RanGTP-Imp inh = -3.7; Calb FLC = -7; LANA-H2B inh = 3.7

Carrying on.
SMILES	HNF4A DNA FP	ALR H2O2 inh	Vif A3G	Beta2AR agonist	RanGTP-Imp inh	Calb FLC	LANA-H2B inh
O=C(Cc1ccc(-n2cccc2)cc1)N1CCN(c2ccccc2F)CC1	-1.9	4	9%	-3	-0.7	-12	-5.1
O=S(=O)(NCc1ccc(F)cc1)c1ccc(-c2cnc(C3CC3)o2)cc1	8.5	-3	nt	2	-0.4	-2	11
COc1cc(/C=N/NC(N)=S)cc(Br)c1OCc1ccccc1F	-2.9	1	nt	11	-2.8	30	-7.5
CCC(=O)Oc1ccc(C2NC(=O)c3ccccc3O2)cc1OC (centres undefined)	3.1	6	-2%	0	5.5	-4	1.4
COc1ccc(/C=N/N=C2/NC(=O)C(CC(=O)O)S2)cc1OCc1ccc(Cl)cc1Cl (centres undefined)	-1.0	7	nt	-1	3.9	6	-1.5
O=C(c1ccc(F)cc1)N1CCN(c2ccc([N+](=O)[O-])c(N3CCCCC3)c2)CC1	0.5	-10	1%	-1	2.1	13	-1.7
CC(=O)CSc1nc2ccccc2o1	2.6	-8	5%	3	3.5	9	0.6
C[C@@H](C(=O)Nc1ccc2ccccc2c1)[C@H]1C[C@]1(C)[C@H](NC(=O)OCc1ccccc1)c1ccccc1	-0.5	1	nt	-6	0.6	-7	1.3
Cc1ccc(OCCOc2cccc(/C=N/NC(N)=O)c2)cc1	1.4	-3	nt	-7	4.3	-1	3.6
COc1ccc(CCN(C)C(=O)CNC(=O)c2ccc3c(c2)OCO3)cc1OC	2.6	-8	nt	1	0.8	-2	1.5
COc1ccc(S(=O)(=O)N(C)c2ccc(C(N)=O)cc2)cc1	-7.1	-2	0%	0	?	2	-1.5
CCOC(=O)c1ccc2nc(C)c3c(c2c1)OC(C)C3 (centres undefined)	2.2	-3	-3%	-4	7.4	4	-5.7
O=C(NCc1cccs1)c1ccccc1C(=O)NCc1cccs1	-6.8	-6	3%	0	4.6	-18	2.3
N/C(=N\OC(=O)CCc1ccccc1)c1ccccc1Cl	2.4	nt	0%	5	1.8	4	-0.1
COc1ccc2nc(SCC(=O)NCC3CCCO3)c(C#N)cc2c1 (centres undefined)	4.5	-1	nt	-7	0.3	-1	6.0
Cc1ccc(OCc2nnc(SCC(=O)Nc3sc(C)c(C)c3C#N)n2C)cc1	0.5	1	0%	-3	-2.6	-16	0.0
CC1(C)Cc2nc3sc4c(=O)n(CC(=O)NCc5ccccc5)cnc4c3cc2CO1	1.7	-10	1%	4	nt	-13	6.2
O=C1CSC(c2cccc([N+](=O)[O-])c2)N1c1ccccc1 (centres undefined)	-1.4	98*	10%	3	?	-1	-5.4
CCCN(CCC)C(=O)NC1CC(=O)N(c2ccc(OC)cc2)C1 (centres undefined)	4.6	-2	16%	-1	?	1	2.9
CCC(C)n1c(SCC(=O)Nc2ccccc2C(F)(F)F)nc2ccsc2c1=O (centres undefined)	3.1	-9	?	-5	-0.7	0	-2.3
COc1cc(NC(=O)NCC2CCN(Cc3ccccc3F)CC2)cc(OC)c1	-1.3	-14	-4%	3	-1.6	-2	-0.3
CS(=O)(=O)NCC(c1ccco1)N1CCN(c2ccc(F)cc2)CC1 (centres undefined)	0.2	73	nt	-4	0.7	-24	3.3
COc1ccc(N(CC(=O)Nc2cc(C)ccc2OC)S(=O)(=O)c2c(C)noc2C)cc1	-1.6	-3	1%&7%	7	?	2	-0.1
Cc1cccc(Cn2cnc3c(NS(C)(=O)=O)c(C)c(C)cc32)c1	-2.0	nt	-4%	-5	-1.0	13	5.9
O=C(Nc1ccccc1Cl)c1ccc(-n2cccn2)c([N+](=O)[O-])c1	-0.9	-5	-3%	10	-1.2	0	4.0
O=C(Cn1nc([N+](=O)[O-])nc1Br)NC(c1ccccc1)c1ccccc1	-1.3	-20	nt	-9	-1.3	5	1.4
CC1CCCC(C)N1c1nnc(NC(=O)Cn2c(=O)oc3ccccc32)s1 (centres undefined)	3.0	-2	-1%	4	-1.1	-7	6.3
Cc1cccc(N(C)S(=O)(=O)c2ccc3[nH]cc(C(=O)N4CCOCC4)c(=O)c3c2)c1	-4.5	-8	?	-1	?	2	-3.0
CCOc1ccccc1N(CC(=O)Nc1ccc(OC)cc1OC)S(=O)(=O)c1ccccc1	-0.5	-3	nt	25	5.6	30	-4.2
CCN(C(=O)COC(=O)c1c(C)noc1C)C1CCS(=O)(=O)C1 (centres undefined)	8.5	9	2%	-2	2.2	-1	-2.2
O=C(CCc1ccccc1)NNC(=O)c1cccc(F)c1	2.8	-19	nt	-5	-4.5	-9	4.8
Cc1ccccc1C(=O)Nc1ccc(-c2nc3ccc(C(=O)c4ccccc4)cc3[nH]2)cc1	2.7	0	-5%	6	-1.7	1	-0.1
COc1ccc(Br)cc1CN1CCCC(C(=O)N2CCCCC2)C1 (centres undefined)	-3.2	-31	-2%	-7	0.3	-35	-2.4
Cc1c(CCOC(=O)c2cccc([N+](=O)[O-])c2)sc[n+]1CC(=O)c1ccccc1	-0.8	39	nt	-5	0.4	3	2.4
COC(=O)C1=C(C)NC(C)=C(C(=O)OC(C)C)C1c1cccc2nonc12 (centres undefined)	-0.7	-28	-1%	7	6.2	nt	-1.7
O=C(CSc1nnc2ccc(-c3ccccn3)nn12)NCC1CCCO1 (centres undefined)	1.7	3	8%	-1	-4.7	-3	2.6
CCCCc1nnc(NC(=O)CN2C(=O)NC3(CCCCC3)C2=O)s1	4.3	-1	nt	-4	?	2	-3.3
CCOC(=O)CCCNC(=O)COC(=O)c1cccc(F)c1	3.7	8	2%	-1	1.6	2	4.8
CN(C)S(=O)(=O)c1ccc(C(=O)NNc2nc(-c3ccccc3)c3cc(Br)ccc3n2)cc1	-0.7	0	12%	-7	7.5	5	-2.8
CSc1ccccc1NC(=O)C1CC(c2ccccc2O)=NO1 (centres undefined)	-0.6	7	-9%	-13	-0.1	12	1.6
O=C(c1ccccc1)N1CCN(S(=O)(=O)c2cccs2)CC1	-1.1	0	nt	-8	2.4	3	-15
Cc1cc(C(=O)N2CCN(c3ccccc3)CC2)c(C)o1	-2.4	72	1%	4	-2.6	2	12
O=C(COC(=O)Cc1ccc(S(=O)(=O)N2CCOCC2)s1)Nc1ccccc1Cl	5.0	-6	-3%	-1	nt	nt	0.8
O=C(Nc1ccccc1)c1cc2c(=O)c3ccccc3oc2nc1C(F)(F)F	-2.3	-1	-16%	-11	-2.5	8	-4.4
CC(C)(C)c1ccc(/C=N/n2cnnc2)cc1	-2.2	-5	0%	-7	-0.8	-1	-4.0
CCCc1cc(C(=O)N2CCC(n3nccc3NC(=O)c3ccc(OC)cc3)CC2)no1	8.9	-4	nt	-13	1.0	1	-0.4
COc1ccc(S(=O)(=O)n2[nH]c(=O)c(CCO)c2C)c([N+](=O)[O-])c1	4.5	-43	-10%	-4	-3.0	4	4.4
C/C(=N\NC(=O)CN1CCN(Cc2ccc(C)cc2)CC1)c1ccncc1	3.2	-9	nt	-6	?	-1	-4.3
COc1ccc2[nH]c(=O)c(CNc3cc(C)ccc3C)cc2c1	5.5	-32	7%	4	-13	-1	-2.3
O=P1(O)C=C(c2ccccc2)NC(c2ccccc2)=C1	3.9	-3	-1%	-6	-4.9	-1	7.8
O=C(O)CNCC1COc2ccccc2O1 (centres undefined)	-1.1	-9	0%	3	0.4	0	-9.3
Cn1c(=O)[nH]c(=O)c2c1nc(Br)n2CC(O)COCc1ccccc1 (centres undefined)	-0.5	91*	4%	-4	-1.2	-6	0.7
CC(C)(C)SCCNS(=O)(=O)c1ccc2ccccc2c1	0.7	-4	7%	-6	0.3	-32	4.8
CCCn1nc(Oc2nc(SC)nc(N(C)C)n2)ccc1=O	2.2	-6	>100µM*	6	0.5	1	3.5
Cc1ccc(NS(=O)(=O)c2cccc(C(=O)N3CCN(c4ncccn4)CC3)c2)cc1	-4.1	4	-12%	-4	nt	nt	i
COC(=O)C1=C(C(=O)OC)[C@@H]2Nc3ccccc3[C@@]23C[C@@H](C(=O)OC)N(C(=O)c2cc(C)oc2C)C3=N1	2.3	-6	nt	3	3.9	14	-1.7
CCOC(=O)N1CCN(CC(=O)Nc2ccc(Oc3ccccc3)cc2)CC1	1.8	10	-4%	-13	-0.4	-3	1.0
Clc1cccc(Cl)c1CNc1ccc(N2CCCC2)cc1	nt	-18	nt	nt	-0.9	4	13
CCC(CC)c1nnc(NC(=O)c2cc([N+](=O)[O-])ccc2N2CCCCC2)s1	-1.0	-2	nt	-10	1.7	-23	2.1
CCCCn1c(N)c(N(CCOC)C(=O)c2cc(-c3ccc(OC)cc3)nc3ccccc23)c(=O)[nH]c1=O	3.4	-7	3%	-6	nt	-3	3.1
C=CCN(CC=C)Cc1c(C)[nH]c2ccc(C(=O)OCC)cc2c1=O	4.5	3	-4%	-11	-0.3	-18	-1.7
CCN(CC(=O)NCc1ccc(Cl)cc1)C(=O)CSc1cccc(C(F)(F)F)c1	-0.3	-4	4%	8	?	nt	8.2
Cc1ccc(Nc2n[nH]c(C)c2[N+](=O)[O-])c(C)c1	2.0	-8	-4%	-10	4.1	-19	-0.6

Bioassay records (PubChem)
